High-throughput results deposited in PubChem BioAssay by Johns Hopkins Ion Channel Center.
Kir21 inh = inhibitors of mouse Kir2.1 inward-rectifier potassium channel. Inward rectifier potassium channel 2 (Mus musculus), P35561. HEK293-Kir2.1, FluxOR thallium flux fluorescence; active compounds read low. B-score at 10 µM. 310,000 tested, 0.85% active;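 active means fluorescence ratio B-score at or below minus 3 SD of library scores, with starting-brightness B-score within 2 SD, cut at about -4.2 in these data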;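 further: channel flux triggered by added potassium and thallium sulfate stimulus; B-score of peak minus minimum fluorescence over baseline after thallium stimulus; more negative B-score means stronger Kir2.1 block with less thallium influx; some compounds called inactive have numbers as strong as hits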
Target sequence (P35561 whole entry, looked up): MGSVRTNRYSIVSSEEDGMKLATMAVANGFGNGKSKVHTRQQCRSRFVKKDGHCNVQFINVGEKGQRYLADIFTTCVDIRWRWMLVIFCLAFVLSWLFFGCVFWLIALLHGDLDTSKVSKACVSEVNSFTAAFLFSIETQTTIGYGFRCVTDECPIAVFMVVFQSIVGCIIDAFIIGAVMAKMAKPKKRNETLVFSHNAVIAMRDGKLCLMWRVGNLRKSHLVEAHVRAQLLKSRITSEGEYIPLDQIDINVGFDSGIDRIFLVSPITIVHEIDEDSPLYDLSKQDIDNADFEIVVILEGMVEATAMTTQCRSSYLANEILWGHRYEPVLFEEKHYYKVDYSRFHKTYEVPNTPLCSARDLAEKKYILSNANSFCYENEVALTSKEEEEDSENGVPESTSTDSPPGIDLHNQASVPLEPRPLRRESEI
Active calls of the source: *. Some of the compounds tested; most or all hits stand in other tables.

SMILES	Kir21 inh
COC(=O)C1=C(c2ccccc2)C[C@@H]2CC[C@H]1N2C(=O)N1CCC(O)CC1	0.15
CC1CCN(CC#CCOc2ccc(Cl)cc2)CC1	-0.3
COc1cc(C2SCC(=O)Nc3c2c(=O)[nH]n3C2CCCCCC2)cc(OC)c1OC (centres undefined)	0.38
CCOC(=O)c1ccc(N=Cc2c(O)n(-c3ccccc3F)c(=S)[nH]c2=O)cc1	-0.07
Fc1ccc2c(c1)nnn2C1CCN(Cc2nnnn2CCc2ccccc2)CC1	-1.3
O=C(Cc1ccccc1)OC(COCc1ccccc1)CN1CCOCC1 (centres undefined)	-1.5
COc1ccc(C=C2C(=O)N(C)C(=O)N(C)C2=O)cc1COc1ccc(NC(C)=O)cc1	0.9
CC1CCCCN1Cc1cccnc1 (centres undefined)	-0.24
CCn1c(O)c(C=NCc2ccccc2)c(=O)[nH]c1=S	-0.07
O=c1[nH]c(=O)n(-c2ccccc2Cl)c(O)c1C=NCCN1CCCCC1	1.7
Cc1ccc(OCC(=O)Nc2ccc(Cl)cc2C(=O)c2ccccc2)cc1	-0.48
COc1cccc(C(=O)N2C[C@H]3C[C@@H](C2)c2cccc(=O)n2C3)c1	-1.4
COc1ccc(OCC(=O)N2CCN(Cc3ccc4c(c3)OCO4)CC2)cc1	0.96
CN1C(=O)C(c2ccccc2)C(=O)N(C)C1=O	-1.7
Cn1ccnc1P(=S)(c1nccn1C)N1CCOCC1	-0.25
CCOC(=O)C(NC(C)=O)C(OC(C)=O)c1cccc(N(CCCl)CCCl)c1 (centres undefined)	-0.05
CCOP(=O)(OCC)C(O)c1ccc(OC)cc1 (centres undefined)	0.36
CC(=NCc1ccc2c(c1)OCO2)c1c(O)n(C)c(=O)n(C)c1=O	-2.6
O=C(Nc1cccc(OC(=O)N2CCCCC2)c1)N1CCOCC1	0.22
COc1ccc(/C=C2/C(=O)NC(=O)N(c3ccccc3)C2=O)cc1CN1C(=O)c2ccccc2C1=O	0.02
O=C(CCC(=O)N1CCOc2ccc(Cl)cc21)N1CCC2(CC1)OCCO2	0.39
O=C(CSC1c2ccccc2-c2ccccc21)N/N=C/c1ccccc1C(=O)O	0.02
CC(=NCCc1ccccc1)c1c(O)n(C)c(=O)n(C)c1=O	0.46
O=c1c2ccccc2nc(CSc2ncnc3nc[nH]c23)n1-c1ccccc1	-0.91
O=c1c2ccccc2nc(-c2ccccc2)n1-n1cccc1	-0.92

At a glance, part of the list above.
SMILES	Kir21 inh
CCn1c(O)c(C=NCc2ccccc2)c(=O)[nH]c1=S	-0.07
O=c1[nH]c(=O)n(-c2ccccc2Cl)c(O)c1C=NCCN1CCCCC1	1.7
Cc1ccc(OCC(=O)Nc2ccc(Cl)cc2C(=O)c2ccccc2)cc1	-0.48

The results go on:
SMILES	Kir21 inh
COC(=O)[C@]1(C)C[C@H]1[C@H](NP(=O)(c1ccccc1)c1ccccc1)c1ccccc1	-2.1
O=C(c1cn(Cc2ccccc2)c2ccccc12)C1CC1	-0.02
C=CCn1c(O)c(C=NCCN2CCNCC2)c(=O)[nH]c1=O	0.41
CC(C)CN1CCN(Cc2c(F)cccc2Cl)CC1CCO (centres undefined)	-0.54
CC(=O)Nc1ccc2c(c1)CC1(C(=O)N(C)C(=O)N(C)C1=O)C1CCCN21 (centres undefined)	0.23
C[C@]12CCC(OC(=O)CCC(=O)O)CC1=CCC1C2CC[C@]2(C)C(=O)CCC12 (some centres undefined)	1.4
N#Cc1c(/N=C/C2C(=O)NC(=S)NC2=O)sc2c1CCCC2	-0.48
Cc1ccc(N(C)C(=O)Oc2cccc3cccnc23)cc1	1.2
O=C1NC(=O)N(c2ccccc2)C(=O)/C1=C\c1ccccc1[N+](=O)[O-]	-0.92
Cc1cc(OCc2ccc([N+](=O)[O-])cc2)c2c3c(c(=O)oc2c1)CCCC3	-0.72
O=C(c1cc(-c2ccccc2)nc2ccccc12)N1CCC2(CC1)OCCO2	0.49
CCN1CCN(Cc2cc(C(C)(C)C)c(O)c(C(C)(C)C)c2)CC1	-1.5
Cc1cccc(C)c1OC(=O)Cc1ccccc1	0
O=C(c1ccccc1F)N1CCC2(CC1)OCCO2	0
C=CCn1c(O)c(C(CC)=NCCC2=CCCCC2)c(=O)[nH]c1=O	0.04
CN1C(=O)C(=Cc2ccc(N3CCOCC3)c([N+](=O)[O-])c2)C(=O)N(C)C1=O	0.65
O=C1CC(N2CC=C(c3ccc(F)cc3)CC2)C(=O)N1c1ccc(F)cc1 (centres undefined)	0.08
Cc1ccc(Cn2cc(C=O)c3ccccc32)cc1	0
O=c1[nH]c(=O)n(Cc2ccco2)c(O)c1C=NCCCn1ccnc1	0.6
Cc1cc(N2C(=O)C3CCCN3C2c2sccc2C)no1 (centres undefined)	-0.32
O=c1[nH]c(=O)n(Cc2ccccc2)c(O)c1C=Nc1ccc(CN2CCOCC2)cc1	0.65
O=C(CN1CC(c2ccccc2)CC1=O)Nc1cccc(F)c1 (centres undefined)	-1.2
COCCNC(=O)c1c(NC(=O)c2ccc(Br)o2)n(Cc2ccccc2)c2nc3ccccc3nc12	0.82
Cc1cc(OCC(=O)N2CCCN(C)CC2)ccc1Cl	-0.02
Clc1cccc(C2NCCc3[nH]cnc32)c1 (centres undefined)	0.2

Following part.
SMILES	Kir21 inh
Cc1cc(Br)c(NC(=O)CN2CC=C(c3ccccc3)CC2)c(Br)c1	0.89
O=C(C1CC(c2ccc(Cl)c(Cl)c2)=NO1)N1CCC2(CC1)OCCO2 (centres undefined)	-1.8
CN1CC[C@@]23CCCC[C@@H]2[C@@H]1Cc1ccc(O)cc13	-0.03
COCCN(C(=O)COC(=O)Cc1ccccc1)c1c(N)n(Cc2ccccc2)c(=O)[nH]c1=O	0.1
C=CCn1c(O)c(C(CC)=Nc2ccc3c(c2)CCC3)c(=O)[nH]c1=O	0.34
C(=NC12CN3CN(CN(C3)C1)C2)c1cccs1	-0.88
CC(C)C12CN3CCN(CC(C3)C1O)C2 (centres undefined)	0.01
CCOC(=O)C1CCN(/C=C2\C(=O)NC(=S)N(CC)C2=O)CC1	-0.4
O=C1c2cccc3cccc(c23)C(=O)N1/N=C/c1c(O)n(-c2ccccc2)c(=O)[nH]c1=O	-0.21
COCC(C)OC(=O)c1c(N)n(Cc2ccco2)c2nc3ccccc3nc12 (centres undefined)	-1.2
COc1ccc(CC2(CCc3ccccn3)C(=O)NC(=O)N(c3ccccc3C)C2=O)cc1OC (centres undefined)	2
Cc1ccc2nc3c(cc2c1)CC1(C(=O)N(C)C(=O)N(C)C1=O)C1COCCN31 (centres undefined)	0.36
N#Cc1ccccc1Cn1cc(C(=O)c2ccco2)c2ccccc21	0.84
CSc1ccc(CNC2CN3CCC2CC3)cc1 (centres undefined)	-0.05
CC(C)(C)n1cccc1/C=C1\C(=O)NC(=O)N(c2ccccc2)C1=O	-0.17
CCCCOC(=O)COc1cc(C)cc2oc(=O)c3c(c12)CCC3	1.8
COc1cc(CN=Cc2c(O)n(C(C)(C)C)c(=O)[nH]c2=O)cc(OC)c1	-0.02
CCC(=Nc1ccc(OC)cc1OC)c1c(O)n(C2CCCCC2)c(=O)[nH]c1=O	1.3
O=P(NCc1ccccc1)(Oc1ccccc1)Oc1ccccc1	-1.7
CC(C)n1c(=O)c(C=Nc2ccc(Br)cc2)c(O)n(Cc2ccco2)c1=O	1.4
CC(C)(C)N(NC(=O)c1ccccc1)C(=O)c1ccccc1	0.25
OC(CCNCCc1c[nH]c2ccccc12)C(F)(F)F (centres undefined)	0.06
COc1ccccc1/C=C1/C(=N/O)C2CCN1CC2	0.76
O=[N+]([O-])c1ccccc1CNCCc1ccc(F)cc1	-1.3
Cc1nc2cc(C(F)(F)F)ccc2n1C1CCN(Cc2nnnn2Cc2ccc3c(c2)OCO3)CC1	-0.46

21 compounds already listed, sorted by SMILES length, highest first:
SMILES	Kir21 inh
O=C1c2cccc3cccc(c23)C(=O)N1/N=C/c1c(O)n(-c2ccccc2)c(=O)[nH]c1=O	-0.21
COCCN(C(=O)COC(=O)Cc1ccccc1)c1c(N)n(Cc2ccccc2)c(=O)[nH]c1=O	0.1
C[C@]12CCC(OC(=O)CCC(=O)O)CC1=CCC1C2CC[C@]2(C)C(=O)CCC12 (some centres undefined)	1.4
COC(=O)C1=C(c2ccccc2)C[C@@H]2CC[C@H]1N2C(=O)N1CCC(O)CC1	0.15
CC(=O)Nc1ccc2c(c1)CC1(C(=O)N(C)C(=O)N(C)C1=O)C1CCCN21 (centres undefined)	0.23
C=CCn1c(O)c(C(CC)=Nc2ccc3c(c2)CCC3)c(=O)[nH]c1=O	0.34
O=C(CSC1c2ccccc2-c2ccccc21)N/N=C/c1ccccc1C(=O)O	0.02
O=c1[nH]c(=O)n(-c2ccccc2Cl)c(O)c1C=NCCN1CCCCC1	1.7
COc1ccc(OCC(=O)N2CCN(Cc3ccc4c(c3)OCO4)CC2)cc1	0.96
Cc1ccc(OCC(=O)Nc2ccc(Cl)cc2C(=O)c2ccccc2)cc1	-0.48
CN1CC[C@@]23CCCC[C@@H]2[C@@H]1Cc1ccc(O)cc13	-0.03
CC(=NCCc1ccccc1)c1c(O)n(C)c(=O)n(C)c1=O	0.46
CC(C)(C)N(NC(=O)c1ccccc1)C(=O)c1ccccc1	0.25
O=C(CN1CC(c2ccccc2)CC1=O)Nc1cccc(F)c1 (centres undefined)	-1.2
CCn1c(O)c(C=NCc2ccccc2)c(=O)[nH]c1=S	-0.07
O=[N+]([O-])c1ccccc1CNCCc1ccc(F)cc1	-1.3
CC(C)CN1CCN(Cc2c(F)cccc2Cl)CC1CCO (centres undefined)	-0.54
CN1C(=O)C(c2ccccc2)C(=O)N(C)C1=O	-1.7
Cc1ccc(Cn2cc(C=O)c3ccccc32)cc1	0
Clc1cccc(C2NCCc3[nH]cnc32)c1 (centres undefined)	0.2
CC1CCCCN1Cc1cccnc1 (centres undefined)	-0.24

Additional results
SMILES	Kir21 inh
c1ccc2c(N3CCNCC3)cccc2c1	-1.4
COc1ccc(C2NCc3ccccc3-n3cccc32)cc1 (centres undefined)	-1
CCCCN1C(=O)NC(=O)C2(Cc3ccccc3N3CCOCC32)C1=O (centres undefined)	0.98
COC(=O)Cn1cc(C=C2C(=O)N(C)C(=O)N(C)C2=O)c2ccccc21	1.5
COc1cccc(-n2c(O)c(C=Nc3c(C)n(C)n(-c4ccccc4)c3=O)c(=O)[nH]c2=O)c1	-0.46
CCc1ccc(N2C(=O)NC(=O)/C(=C/c3cccn3CCOc3ccc(C)cc3)C2=O)cc1	1.1
COC(=O)C1=C(c2cccc(OC)c2OC)C[C@@H]2CC[C@H]1N2C(=O)NC1CC1	0
